PABP polyA inh: blocks human PABP binding to poly(A) RNA; 1% of 290,000 active; fluorescence polarization; inhibition, % at 35 µM; AID 2014; P11940;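 active means 50% or more with normal probe brightness, or confirmed in later tests; inconclusive means above 50% with abnormal brightness, or retests that disagree; inactive means below 50% or failed in later tests; about a fifth of its hits are not listed in these tables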;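 further: calls also rest on retests at 20 µM and on dose response follow-up; controls were probe without protein and protein plus probe with vehicle; some compounds called inactive have numbers as strong as hits; many hits fall short of the cut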
Target sequence (P11940 whole entry, looked up): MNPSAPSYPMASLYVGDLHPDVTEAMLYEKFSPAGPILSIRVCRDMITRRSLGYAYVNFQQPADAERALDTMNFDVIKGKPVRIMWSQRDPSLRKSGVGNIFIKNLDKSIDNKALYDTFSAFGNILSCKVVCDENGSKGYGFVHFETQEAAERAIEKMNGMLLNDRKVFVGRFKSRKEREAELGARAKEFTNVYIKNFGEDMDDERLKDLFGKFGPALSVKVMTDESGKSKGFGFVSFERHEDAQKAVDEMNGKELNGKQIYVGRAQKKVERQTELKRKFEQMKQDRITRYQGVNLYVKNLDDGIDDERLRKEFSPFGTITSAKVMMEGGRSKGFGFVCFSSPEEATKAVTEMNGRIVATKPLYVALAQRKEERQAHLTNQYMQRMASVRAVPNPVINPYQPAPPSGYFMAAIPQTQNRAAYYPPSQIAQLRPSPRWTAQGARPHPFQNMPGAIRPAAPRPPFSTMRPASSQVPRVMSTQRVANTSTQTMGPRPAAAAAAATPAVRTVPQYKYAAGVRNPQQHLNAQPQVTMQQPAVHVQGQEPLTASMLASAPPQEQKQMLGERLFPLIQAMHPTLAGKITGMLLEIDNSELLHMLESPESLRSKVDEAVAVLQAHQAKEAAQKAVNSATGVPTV
Rce1 inh: yeast Ras-converting enzyme inhibition; 0.27% of 290,000 active; Q03530; yeast membranes, quenched prenylated peptide cleavage fluorescence; calls only; AID 2563;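 active means fall in fluorescence gain of 50% or more versus controls, with final raw signal at or below 3038400; inconclusive means same 50% fall but final raw signal above 3038400; inactive means fall in fluorescence gain under 50%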;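 further: plate controls were neutral control wells for no effect and wells lacking membranes for full effect; tested at 10 µM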
Target sequence (Q03530 whole entry, looked up): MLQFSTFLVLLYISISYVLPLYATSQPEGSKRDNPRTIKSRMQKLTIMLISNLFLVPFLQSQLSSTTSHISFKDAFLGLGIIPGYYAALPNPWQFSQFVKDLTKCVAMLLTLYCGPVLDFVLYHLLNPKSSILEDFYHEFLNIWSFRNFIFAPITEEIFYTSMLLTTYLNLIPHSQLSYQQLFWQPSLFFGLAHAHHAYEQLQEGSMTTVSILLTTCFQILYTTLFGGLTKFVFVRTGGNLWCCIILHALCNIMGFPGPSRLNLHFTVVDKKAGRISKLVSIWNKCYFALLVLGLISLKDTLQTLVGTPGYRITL
eIF4H FP inh: inhibitors of RNA binding by human eIF4H; eIF4H fluorescence polarization binding assay; AID 2012; 0.94% of 290,000 active; inhibition, % at 35 µM;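 active means 50% or more with normal probe brightness, or confirmed in later tests; inconclusive means above 50% with abnormal brightness, or retests that disagree; inactive means below 50% or failed in later tests; about a fifth of its hits are not listed in these tables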;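 further: calls also rest on retests at 20 µM and on dose response follow-up; 0% = protein and probe with vehicle and 100% = probe without protein; strong numbers were not always called active; many hits fall short of the cut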
HIV Env fusion: inhibitors of HIV Env-mediated cell fusion | inhibition, % at 12.3 µM | 1.1% of 360,000 active | AID 651610 | HeLa-JRFL Env/CEM21 cell fusion, luciferase;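 active means mean replicate inhibition score of at least 50 and every replicate individually at or above 50; inconclusive means only one of the two criteria met; inactive means mean below 50 and not all replicates reaching 50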;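 further: 0% = plate neutral controls and 100% = maraviroc near 300 nM; one replicate is shown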
UUG fidelity: yeast start codon fidelity modulation. S. cerevisiae UUG-firefly luciferase reporter, luminescence/redox ratio. 0.13% of 350,000 active. activity score, % at 18.7 µM. AID 602363;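 active means replicate mean at a twofold rise or more, about +100% in these data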;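 further: firefly luciferase made from a UUG start codon reports start codon fidelity; reporter light over untreated wells divided by growth signal over untreated wells; some hits fall short of that in this replicate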
MT1-MMP act inh: blocks activation of human MT1-MMP | P50281 | HT1080 RFP-PRO-GFP cells, GFP/RFP ratio fluorescence, overnight; percent of plate control window, DMSO zero | GFP/RFP ratio change, % at 20 µM | 0.061% of 360,000 active;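 active means GFP/RFP ratio change of at least 30% with cell ATP level not reduced by more than half and red fluorescence within 50% of control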; further: strong numbers were not always called active
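Assay system: HT1080 RFP-PRO-GFP cells | Dosing: 20 µM single dose, 1% DMSO | Incubation: Cells overnight before dosing, compound overnight, 37 °C, 5% CO2 | Evaluation: GFP/RFP fluorescence ratio | Control set: DMSO-only wells and HT1080 RFP-L50D-GFP cell wells as references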
CSC inhib: cancer stem cell inhibition | inhibition, % at 7.5 µM | 1.1% of 300,000 active | cancer stem cell-like cells viability, luminescence;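 active means mean at 75% or more and at least half the replicates too; inconclusive means mean and replicates disagree; tested in HMLE shEcad cells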;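 further: 0% = median of negative and 100% = median of positive control wells; the first replicate is given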
MT1-MMP act inh RFP: further read-out of MT1-MMP act inh, marked with its call; RFP signal change, %; measured here: RFP expression control read;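 0 = vehicle wells; hits needed this value within 50% of zero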
* marks the source's active call; other numbers are inactive results; i = inactive; ? = inconclusive; · = not tested or not shown; & = joins results of further samples.

SMILES | PABP polyA inh | Rce1 inh | eIF4H FP inh | HIV Env fusion | UUG fidelity | MT1-MMP act inh | MT1-MMP act inh RFP | CSC inhib
O=C(COc1cccc(C(F)(F)F)c1)Nc1ccc2[nH]ncc2c1 | -8.4 | i | -4.0 | -0.8 | -17.4 | -2.8 | 1.5 | -7.8
CN(CC(=O)Nc1ccc(Cl)cc1)C(=O)Cn1[nH]c(=O)c2ccccc2c1=O | · | i | · | 0.8 | · | 1.0 | 1.7 | -15.0
O=C(NCCN1CCOCC1)c1cc2c(=O)n3ccccc3nc2n1Cc1ccccc1 | 3.2 | i | -6.0 | -36.9 | -12.2 | 2.3 | -1.4 | -2.7
O=C(c1ccccc1)n1c(=O)c(F)cn(COCCBr)c1=O | 4.9 | i | -9.7 | 10.5 | -7.7 | 8.8 | 1.9 | -5.3
Cc1oncc1C(=O)Nc1ccc2ccccc2c1 | -9.7 | i | -7.4 | -227.8 | -3.3 | 0.4 | 5.3 | ·
O=c1ncccn1C1OC(CO)C(O)C1O (configuration not stated) | · | · | · | 16.0 | -5.9 | 2.6 | 6.2 | ·
O=C(CCN1C(=O)c2ccccc2C1=O)NCCN1CCOCC1 | 2.8 | i | 0.9 | -22.2 | -20.4 | 3.7 | 7.7 | -11.2
FC(F)(F)c1cccc(Cc2noc(CN3CCSCC3)n2)c1 | -2.5 | i | -11.2 | 4.7 | · | 1.0 | 5.0 | -0.5
Cc1nccn1Cc1ccccc1 | -7.7 | i | -4.0 | 5.6 | -14.6 | 2.8 | 5.0 | 4.2
Cc1cc(C)nc(NNC2=CC(=O)CC(C)(C)C2)n1 | -6.8 | i | ? | 5.9 | · | -3.8 | -1.2 | -1.4
CC1CCN(C(=O)C(=O)c2cn(CC(=O)N3CCCC3)c3ccccc23)CC1 | 3.3 | i | -6.4 | -144.9 | -2.5 | -2.9 | 2.4 | -7.0
CC(C)(C)c1ccc(C(=O)Nc2cccnc2)cc1 | -0.2 | · | 1.5 | -88.5 | -11.4 | 4.6 | -4.8 | -15.9
CCOc1ccc(S(=O)(=O)NCCC(=O)NCCCSc2ccccc2)cc1 | · | i | · | · | · | 1.6 | -1.0 | -3.1
O=C(Nc1cccc([N+](=O)[O-])c1)C1C2CCCCC21 (configuration not stated) | -9.1 | i | -8.5 | -11.6 | -10.1 | 3.2 | -2.6 | -15.4
CC(C)(C)C1CCc2onc(C(=O)NC3CCCC3)c2C1 (configuration not stated) | -5.0 | i | 5.7 | · | 0.2 | -1.1 | -5.8 | 18.3
O=C(CNC(=O)C1CCCCC1)NCCCO | 9.5 | · | -1.2 | · | 11.2 | -1.3 | 5.6 | -17.1
O=C(NN=C1CCCCCCC1)c1ccc2ccccc2n1 | -7.0 | i | 11.4 | 19.8 | · | -8.0 | 1.2 | 0.3
CS(=O)(=O)c1cccc(C(=O)OCC(=O)NCc2cccs2)c1 | · | · | · | · | -11.9 | 1.8 | 4.9 | 0.3
NNc1nc(Nc2ccccc2)nc(Nc2ccccc2)n1 | 2.6 | i | 14.1 | -38.3 | -0.7 | -1.8 | 6.0 | -14.7
Cc1cc(O)c(C(C)C)cc1NC(=O)Nc1cc(Cl)ccc1Cl | · | · | · | 15.0 | -17.1 | 2.9 | 1.5 | ·
Cc1ccc(Cl)c(N/C=C/C(=O)c2ccccc2)c1 | 0.6 | i | -1.6 | -133.1 | -34.1 | -6.0 | -6.7 | -1.8
CCC(C)n1ncn(-c2ccc(N3CCN(c4ccc(O)cc4)CC3)cc2)c1=O (configuration not stated) | 2.6 | i | -2.8 | 3.0 | · | 2.4 | -1.5 | 104.1*
CNc1c(NS(=O)(=O)c2cc(Cl)ccc2OC)c(=O)oc2ccccc12 | 0.5 | i | -3.0 | -18.9 | -21.7 | 0.9 | 2.4 | -7.1
CC(=O)Nc1ccc(S(=O)(=O)N(C)CC(=O)OCC(=O)N2CCc3ccccc32)cc1 | 7.4 | i | -5.4 | -49.9 | -12.0 | -0.5 | 4.5 | -1.0
Cc1ccccc1C(=O)NNC(=S)NC(=O)c1ccc(Cl)cc1Cl | 11.1 | i | 10.2 | · | · | 8.3 | -0.9 | ·
CCN(CC(=O)Nc1ccccc1OC)C(=O)CC1CC2CCC1C2 (configuration not stated) | · | · | · | 2.3 | 14.8 | 1.7 | -0.4 | 3.6
Cc1ccccc1N1CCN(C2CCCN(C(=O)c3ccccn3)C2)CC1 (configuration not stated) | 8.6 | i | 0.5 | · | -6.9 | -1.7 | 2.0 | -2.9
C[C@H]1CN([C@@H](C)CO)C(=O)c2cc(Br)cnc2O[C@@H]1CN(C)S(=O)(=O)c1cn(C)cn1 | · | · | · | 17.1 | -7.8&-10.0 | 1.4 | 3.5 | ·
CCCCC1=CC2=C(c3ccco3)C(=O)C(C)(OC(=O)c3ccc(OC)cc3)C(=O)C2=CN1C1CC1 (configuration not stated) | ? | i | ? | 8.0 | -8.6 | -19.2 | 0.5 | -4.8
O=C(c1ccc(N2CCOCC2)cc1)c1cccs1 | -3.4 | i | -8.1 | -205.9 | -31.9 | -1.9 | 3.3 | 13.3
O=C(O)c1cc(-c2cccc(Cl)c2)nc2nc(N3CCCCC3)sc12 | -14.8 | i | -2.9 | -3.4 | · | 7.3 | 1.9 | -0.1
CCc1nc(N2CCN(C(C)=O)CC2)c2c3c(sc2n1)CC(C(C)(C)C)CC3 (configuration not stated) | -0.9 | i | 3.1 | 3.8 | 15.6 | -9.4 | -23.4 | 12.1
CCOc1ccc(C2NC(=O)NC(C)=C2[N+](=O)[O-])cc1OC (configuration not stated) | 0.2 | i | 10.7 | -9.7 | -18.9 | 10.4 | 0.3 | -8.6
COc1ccccc1/C=c1\sc2nc(-c3ccco3)nn2c1=O | 61.8* | i | 90.5* | · | · | -6.6 | 0.2 | 0.8
COc1ccc(C)cc1NC(=O)CN(C)S(=O)(=O)c1ccc2c(c1)n(C)c(=O)c(=O)n2C | -5.5 | i | -6.3 | -9.0 | -15.3 | 4.5 | 4.9 | 3.2
Cc1cc(S(=O)(=O)N(Cc2cccs2)Cc2ccccc2F)ccc1-n1cnnn1 | 2.8 | i | 13.2 | 1.4 | · | -4.6 | -10.1 | 12.2
COc1cccc(CNC(=O)COC(=O)CCc2cc(OC)c(OC)c(OC)c2)c1 | · | · | · | 2.3 | 3.3 | -1.9 | 2.5 | -15.8
CCCCCN(C(=O)CCC(=O)OCc1ccc(Cl)cc1Cl)c1c(N)n(CCCC)c(=O)[nH]c1=O | · | i | · | 2.1 | · | -32.1 | -22.9 | 0.1
CCOC(=O)C1(CC2CCCCO2)CCN(S(=O)(=O)c2ccsc2)CC1 (configuration not stated) | -2.9 | i | 2.3 | 1.7 | · | -1.7 | 5.6 | -3.9
Cc1nonc1N1CCN(Cc2cn[nH]c2-c2ccc3c(c2)OCO3)CC1 | 3.9 | i | 0.0 | -20.6 | -6.1 | 2.9 | 2.1 | -10.8
CCOC(=O)c1c(C)nc(C)c(C(=O)OCC)c1-c1ccccc1 | 1.8 | · | 7.3 | · | · | 0.7 | 0.8 | -6.8
CC(NC(=O)CN(c1cccc(C(F)(F)F)c1)S(=O)(=O)c1ccc(Cl)c([N+](=O)[O-])c1)c1ccccc1 (configuration not stated) | 1.9 | i | -7.4 | · | -2.6 | -8.3 | -13.4 | 98.1*
CC(C)(C)c1ccc(OCC(=O)NNC(=S)NC(=O)c2ccco2)c(Br)c1 | -4.0 | i | 9.6 | 2.8 | -13.0 | 0.3 | -5.3 | -10.1
Cc1ccc(-c2nnc(SCC(=O)CC(=O)Nc3ccccc3)n2-c2ccccc2)cc1 | -7.8 | i | 2.2 | -30.1 | -14.7 | -2.5 | 2.8 | 8.0
CCC(C)[C@H](NC(=O)NCc1cccc(OC)c1)C(=O)OC (some centres not stated) | 4.0 | i | 5.0 | · | -9.5 | 1.8 | 4.9 | ·

Arranged by number of heavy atoms (lowest first): 3 of the compounds above.
SMILES | PABP polyA inh | Rce1 inh | eIF4H FP inh | HIV Env fusion | UUG fidelity | MT1-MMP act inh | MT1-MMP act inh RFP | CSC inhib
CCC(C)[C@H](NC(=O)NCc1cccc(OC)c1)C(=O)OC (some centres not stated) | 4.0 | i | 5.0 | · | -9.5 | 1.8 | 4.9 | ·
CCOC(=O)C1(CC2CCCCO2)CCN(S(=O)(=O)c2ccsc2)CC1 (configuration not stated) | -2.9 | i | 2.3 | 1.7 | · | -1.7 | 5.6 | -3.9
COc1cccc(CNC(=O)COC(=O)CCc2cc(OC)c(OC)c(OC)c2)c1 | · | · | · | 2.3 | 3.3 | -1.9 | 2.5 | -15.8

Further compounds follow:
SMILES | PABP polyA inh | Rce1 inh | eIF4H FP inh | HIV Env fusion | UUG fidelity | MT1-MMP act inh | MT1-MMP act inh RFP | CSC inhib
CCCCC1=CC2=C(c3ccco3)C(=O)C(C)(OC(=O)c3ccc(OC)cc3)C(=O)C2=CN1CCCCO (configuration not stated) | ? | i | ? | · | -14.3 | -27.9 | 3.4 | 5.4
O=C(/C=C/c1ccccc1Cl)Nc1ccncc1 | 0.2 | i | -4.9 | · | -10.3 | 1.1 | -3.3 | 5.6
Cc1ccc(C(=O)CSC2=C(C#N)C(c3ccco3)CC(=O)N2)c(C)c1 (configuration not stated) | 32.6 | i | 30.6 | -18.2 | -17.4 | 4.4 | -1.3 | 19.2
CCS(=O)(=O)N1Cc2ccccc2CC1C(=O)NC(C)C12CC3CC(CC(C3)C1)C2 (configuration not stated) | -1.3 | i | -8.0 | 101.6* | -21.1 | -4.4 | -4.0 | 8.3
CCCn1c(=O)c(C(=O)NCc2ccccc2OC)c(O)c2ccccc21 | -10.0 | i | -5.8 | -2.1 | -4.1 | 4.5 | 1.9 | 42.7
CCOC(=O)c1c(-c2ccccc2)oc2ccc(O)c(CN3CCCC3)c12 | -5.5 | i | 0.9 | -19.5 | -10.9 | 0.3 | -4.4 | 8.2
O=C(CCn1c(=O)[nH]c2ccsc2c1=O)NCc1ccc(F)cc1 | 1.7 | i | -20.4 | -21.9 | · | 3.5 | 1.6 | 0.7
CC(C)(Cc1ccc(O)cc1)NC(=O)CC(=O)N=Nc1c(O)[nH]c2ccc(Br)cc12 | -6.7 | · | -9.5 | -8.0 | · | -2.8 | 1.6 | 6.2
O=C(c1ccccc1)N1CCCc2ccccc21 | -9.7 | i | -3.2 | · | -17.8 | -1.2 | 3.8 | -13.5
NC(=O)CC(NC(=O)Cc1ccc(Br)cc1)c1ccc(NCc2ccc(F)cc2)c([N+](=O)[O-])c1 (configuration not stated) | 12.5 | i | 3.4 | · | -21.9 | 11.1 | -3.0 | 42.0
Cc1ccc(S(=O)(=O)Nc2ccc3c(c2)OCCO3)cc1C | 0.1 | i | 3.1 | 2.3 | · | 4.2 | -3.6 | -0.6
Nc1cc(S(=O)(=O)N2CCOCC2)ccc1N1CCCCC1 | · | · | · | -10.2 | -2.5 | 2.4 | -0.4 | -1.0
O=C(O)Cn1c(O)c(C2=c3ccccc3=NC2=O)sc1=O | 4.0 | i | 4.1 | -3.8 | -0.6 | 6.6 | 8.4 | -6.1
N/C(=N/OC(=O)c1ccccc1F)c1nonc1N | -5.7 | i | 0.5 | -21.7 | · | 0.0 | 1.7 | 2.6
C[C@H]1CC[C@@]2(O[C@H](CCO)C[C@H](O)[C@H]2O)O1 | · | i | · | 2.2 | -13.9 | 2.3 | 8.9 | -8.8
O=S(=O)(NCC1CCCO1)c1ccc(-c2ccc(S(=O)(=O)NCC3CCCO3)cc2)cc1 (configuration not stated) | -0.1 | i | 0.0 | ? | · | -4.2 | -27.2 | 3.4
O=C(NCCCN1CCCC1=O)c1cc2nc(-c3ccco3)cc(C(F)(F)F)n2n1 | 11.9 | · | 17.4 | -3.3 | 10.7 | 1.2 | 3.0 | -16.3

Compound activity: PubChem BioAssay, several laboratories
